Source: PubChem (National Center for Advancing Translational Sciences (NCATS))
AmpC inh no detg: inhibitors of E. coli AmpC beta-lactamase without detergent. P00811. AmpC nitrocefin hydrolysis, absorbance 480 nm, 0.0001% Triton. Potency, µM (doses to about 57.1 µM), without a hit: at the highest dose activity change, negative = inhibition, most hits filed as inhibitors. hit rate 0.52% among 330,000;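 also: plate controls were no compound for no effect and no enzyme for full effect; nearly all actives have a fitted effect of over 20% in size; some results filed as inactive show a strong effect at the top dose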
Target sequence (P00811 whole entry, looked up): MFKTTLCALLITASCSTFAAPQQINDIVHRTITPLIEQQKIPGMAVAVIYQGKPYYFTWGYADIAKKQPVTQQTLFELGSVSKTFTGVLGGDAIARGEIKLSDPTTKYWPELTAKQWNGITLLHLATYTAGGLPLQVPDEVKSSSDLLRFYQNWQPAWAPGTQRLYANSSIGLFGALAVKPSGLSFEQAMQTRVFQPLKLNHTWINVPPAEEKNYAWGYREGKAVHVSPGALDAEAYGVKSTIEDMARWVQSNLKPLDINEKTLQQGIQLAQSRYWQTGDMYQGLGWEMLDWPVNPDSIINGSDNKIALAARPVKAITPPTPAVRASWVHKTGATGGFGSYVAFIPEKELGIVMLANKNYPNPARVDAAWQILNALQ
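20 mM phosphate pH 7.0 + 0.01% (detergent screen) or 0.0001% Triton X-100; 5.3 nM AmpC reagent; cpd preinc 15 min RT; nitrocefin (800 uM stock) to start; A480 q20 s × 4 min; Activity was normalised to no-enzyme and no-compound control wells.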
AmpC inh detg: AmpC beta-lactamase inhibition with detergent present. P00811. AmpC hydrolysis of nitrocefin, absorbance 480 nm, 0.01% Triton. Potency, µM (top dose mostly 114 µM), for inactives: at the top dose activity change, negative = inhibition, actives largely listed as inhibitors. hit rate 0.041% among 370,000. AID 485294;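 also: 0% = no-compound wells and -100% = no-enzyme wells; nearly all actives have a fitted effect of over 25% in size; some results filed as inactive show a strong effect at the top dose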
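20 mM phosphate pH 7.0 + 0.01% (detergent screen) or 0.0001% Triton X-100; 5.3 nM AmpC reagent; cpd preinc 15 min RT; nitrocefin (800 uM stock) to start; A480 q20 s × 4 min; Activity was normalised to no-enzyme and no-compound control wells.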
AMA1 RON2 block: inhibitors of Plasmodium falciparum AMA1-RON2 interaction | AlphaScreen AMA1-biotinylated RON2 peptide binding | Potency, µM (doses to about 58.2 µM), inactives show at the top dose activity change, negative = inhibition, usual class: inhibitors | hit rate 0.2% among 360,000 | AID 720542;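 also: 0% = vehicle wells and -100% = peptide control; nearly all actives have a fitted effect of over 45% in size; some results filed as inactive show a strong effect at the top dose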
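AMA1 (3D7) with his tag at 25 nM final met compounds first, then biotinylated RON2 peptide at 25 nM; detection used donor plus acceptor beads, 10 µg/mL apiece, read by AlphaScreen after 30 min at room temperature.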
HCV inh: blocks hepatitis C virus. Huh7.5.1 HCVcc-Cre infection, luciferase reporter, 44 h. Potency, µM (series often up to 41.8 µM), for the others: at the top dose activity change, negative = inhibition, actives largely listed as inhibitors. hit rate 3.4% among 340,000. AID 651820
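Seed cells (1,000/well) for 4 h; treat with compound and infect with HCVcc-Cre, moi about 0.5. Incubate 44 h, then detect luciferase activity.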
* marks the source's active call; other numbers are inactive results; ? = inconclusive; · = not tested or not shown; ! = not confirmed by another sample; [ ] = dose if it differs, or a comment. Calls follow the shape of the dose curve; as a rule, active = well fitted curve in the direction sought with a large enough effect; inconclusive = small, poorly fitted or top-dose-only effect, or another doubt; inactive = no such curve, though single readings can be large; an effect the other way counts as inactive or inconclusive. Unless noted, % is scaled to controls: 0 for no effect and ±100 for the full control effect; potency is read from the fitted curve at half-maximal effect.

SMILES | AmpC inh no detg | AmpC inh detg | AMA1 RON2 block | HCV inh
Cc1ccnc(N(C(=O)c2cccs2)C(=O)c2cccs2)c1 | -9.0% | ? | 29.5% | 7.5%
Cc1cccc(NS(=O)(=O)c2c(C(=O)N3CCCC3)c(C)n(C)c2C)c1 | 20.4% | -14.8% | 23.5% | 24.0%
CN(C)CCOC(c1ccccc1)c1ccccc1 (tested in a mixture with another compound) | 39.9% | 10.1% | -1.9% | -26.9%
O=C(NC(=S)Nc1ccccn1)c1ccccc1 | -19.6% | 5.7% | -1.4% | -17.9%
Cc1cc(Cl)c(C)c(S(=O)(=O)N2CCN(CC(=O)N3CCOCC3)CC2)c1Cl | 200.6%[activator] | 2.1% | 1.1% | ?
Fc1ccc2[nH]c3c(N4CCSCC4)ncnc3c2c1 | ? | ? | -0.8% | 6.31µM*
S=C1NCCN1 | -8.8% | 2.0% | 8.7% | -14.1%[8.37 µM]
Clc1ccc2c(c1)-c1ccccc1C1=NCCN12 | · | · | 2.9% | ·
CCOC(=O)c1cc2c(ccc3ccccc32)oc1=O | 0.9% | 2.2% | 1.6% | -0.6%
O=c1c2ccccc2nc(/C=C/c2ccc(F)cc2)n1-c1ccccc1O | -42.2% | -12.0% | -0.4% | -22.6%
NC(N)=NC(N)=NCCc1ccccc1 | -5.7% | -1.5% | 23.6% | 3.16µM*!
CCOC(=O)c1cc(-c2ccc(C)cc2)n(CCCC(=O)Nc2cc(C)ccc2C)c1 | · | 3.5% | · | ·
O=[N+]([O-])c1c(Nc2cccc(O)c2)cc(Cl)c2nonc12 | -31.9% | -12.4% | -5.7% | ?
CC(C)C1(C)N=C(c2nc3ccccc3cc2C(=O)O)NC1=O (configuration not stated) | -9.3% | -12.2% | 9.4% | 4.8%
c1ccc2c(c1)C1=NCCN1c1ccccc1-2 | · | · | -8.5% | ·
Cc1csc(NC(=O)Nc2ccccc2[N+](=O)[O-])n1 | -31.4% | -3.5% | -0.4% | -16.5%
COC(=O)c1sccc1NC(=O)Nc1cccc(C(C)=O)c1 | -27.3% | 8.3% | 12.8% | -4.9%
CCC(C)(O)C(=O)OC1C(=O)OC2CC3C(C)=CC(=O)C(O)C3(C)C3C4(O)OCC23C1C(C)C4O (configuration not stated) | · | · | -5.8% | ?
CCCC(=O)c1ccc(O)cc1O | -18.8% | 1.5% | · | ·
N/C(=N\OC(=O)c1cccs1)c1cccc(Br)c1 | -17.6% | 0.9% | 0.2% | 10.0%
Nc1cccc(O)c1 | -9.1% | 1.9% | -6.8% | 14.1%
CCOC(=O)N1CCC(NC(=O)c2cnn(-c3cccc(C)c3)c2C2CCN(C(=O)OC(C)(C)C)CC2)CC1 | · | 19.8% | · | ·

An excerpt of these results, with values under each structure:
The line under a structure holds: AmpC inh no detg | AmpC inh detg | AMA1 RON2 block | HCV inh
> Clc1ccc2c(c1)-c1ccccc1C1=NCCN12
    · | · | 2.9% | ·
> CCOC(=O)c1cc2c(ccc3ccccc32)oc1=O
    0.9% | 2.2% | 1.6% | -0.6%
> O=c1c2ccccc2nc(/C=C/c2ccc(F)cc2)n1-c1ccccc1O
    -42.2% | -12.0% | -0.4% | -22.6%
> NC(N)=NC(N)=NCCc1ccccc1
    -5.7% | -1.5% | 23.6% | 3.16µM*!
> CCOC(=O)c1cc(-c2ccc(C)cc2)n(CCCC(=O)Nc2cc(C)ccc2C)c1
    · | 3.5% | · | ·
> O=[N+]([O-])c1c(Nc2cccc(O)c2)cc(Cl)c2nonc12
    -31.9% | -12.4% | -5.7% | ?
> CC(C)C1(C)N=C(c2nc3ccccc3cc2C(=O)O)NC1=O (configuration not stated)
    -9.3% | -12.2% | 9.4% | 4.8%
> c1ccc2c(c1)C1=NCCN1c1ccccc1-2
    · | · | -8.5% | ·
> Cc1csc(NC(=O)Nc2ccccc2[N+](=O)[O-])n1
    -31.4% | -3.5% | -0.4% | -16.5%
> COC(=O)c1sccc1NC(=O)Nc1cccc(C(C)=O)c1
    -27.3% | 8.3% | 12.8% | -4.9%
> CCC(C)(O)C(=O)OC1C(=O)OC2CC3C(C)=CC(=O)C(O)C3(C)C3C4(O)OCC23C1C(C)C4O (configuration not stated)
    · | · | -5.8% | ?
> CCCC(=O)c1ccc(O)cc1O
    -18.8% | 1.5% | · | ·
> N/C(=N\OC(=O)c1cccs1)c1cccc(Br)c1
    -17.6% | 0.9% | 0.2% | 10.0%
> Nc1cccc(O)c1
    -9.1% | 1.9% | -6.8% | 14.1%
> CCOC(=O)N1CCC(NC(=O)c2cnn(-c3cccc(C)c3)c2C2CCN(C(=O)OC(C)(C)C)CC2)CC1
    · | 19.8% | · | ·

The list is partial; rates above refer to the full screens.
